Screening results as filed in PubChem.
HTT prom inh – inhibits huntingtin promoter activity. HEK293 HTT promoter firefly luciferase reporter (activity 0% = vehicle and -100% = no light), 24 h. Potency, µM (highest dose often 57.5 µM), without a hit: at the top dose activity change, negative = inhibition, hits mostly inhibitors. actives 0.93% (n = 48,000). AID 1508623; active = well fitted inhibition curve with a large enough effect; inconclusive = small, poorly fitted or top-dose-only effect; inactive = no such curve, though single readings can be large or run the other way; note: nearly all actives have a fitted effect of over 50% in size
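HEK293 Fluc reporter, 2,500 cells/well, 24 h pre-culture; cpds up to 57.5 uM final, 24 h 37 degrees C; Dual-Glo, 10 min RT; normalized vehicle = 0%, zero RLU = -100%.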
PMP22 txn – modulators of PMP22 gene transcription in S16 Schwann cells; actives 2% (n = 43,000); S16 Pmp22-F2sN Schwann cells (luciferase reporters placed in the Pmp22 gene), FLuc/NLuc coincidence luminescence, 24 h; Potency, µM (highest dose often 57.5 µM), without a hit: at the highest dose activity change, negative = inhibition, usual class: inhibitors; active = clear falling dose curves in both reporters; inconclusive = both reporters move, but less clearly or upward; inactive = either reporter flat; the % is the NLuc reporter signal; note: % is set by controls: 0 for no effect and ±100 for the full control effect; some results filed as inactive show a strong effect at the top dose
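Rat S16 Pmp22-F2sN cells, 500-1,000/well in phenol red-free DMEM + 10% FBS, compound-treated 24 h (37C, 5% CO2). Luminescence: FLuc read, Stop&Glo added, NLuc read.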
The depositor's hits bear a star; ? = inconclusive; . = no result given; [ ] = remark or other dose. Potency is the fitted concentration of half-maximal effect.

SMILES	HTT prom inh	PMP22 txn
Cc1ccc(CCNC(=O)c2ccc(CNS(=O)(=O)c3ccc(C)cc3)cc2)cc1	-6%	-13%
Cn1nnc2c(N3CCN(c4cccc(Cl)c4)CC3)ncnc21	-18%	-14%
Cc1ccc(CNC(=O)c2ccc3c(c2)NC(=O)C(CS(=O)(=O)Cc2ccc(F)cc2)N3)cc1 (centres undefined)	0%	?
COc1ccc(CNC(=O)C(=O)Nc2c3c(nn2-c2ccccc2)CSC3)cc1	-16%	-7%
O=C(NCC12CC3CC(CC(C3)C1)C2)c1cc2nc(-c3ccc(F)cc3)cc(C(F)(F)F)n2n1	-5%	-28%
COc1ccccc1CNC(=O)CN1C(=O)CSc2ccc(S(=O)(=O)N3CCCCC3)cc21	-13%	-13%
COc1ccc(C(C(=O)Nc2ccc(C(C)C)cc2)N(C)C(=O)Cc2cccs2)cc1 (centres undefined)	-20%	2%
CCOC(=O)c1ccc(NC(=O)C2(S(=O)(=O)c3ccc(Cl)cc3)CC2)cc1	-1%	-8%
COc1ccc(CNC(=O)c2cc(-c3ccc(C)cc3)nc3n[nH]c(-c4ccc(Br)cc4)c23)cc1	-13%	?
CC(=O)Nc1nnc2n1CCS2	-9%	-7%
O=C(Nc1ccc(-c2nc3cc(NC(=O)c4ccc(F)cc4)ccc3o2)cc1)c1ccc(F)cc1	45%[activator]	6%
CCCc1ccc(OCC(=O)Nc2sc(C(=O)OCC)c(C)c2C(=O)OCC)cc1	-1%	-12%
CCOc1ccccc1NC(=O)CCc1c(C)nc2cc(-c3ccccc3)nn2c1C	?	-26%
Cc1ccc2nc(/C(C#N)=C/c3ccc(-c4ccc(C(=O)OC(C)C)cc4)o3)[nH]c2c1	-12%	?
O=c1c(=O)n(Cc2c(F)cccc2Cl)ccn1Cc1ccccc1	-15%	-10%
CCOC(=O)c1ccc(NC(=O)c2sc3nc4n(c(=O)c3c2C)CCC4)cc1	-17%	-31%
CCOC(=O)Cn1c(=O)n(C2CCCCC2)c2nc(-c3cccc(F)c3)nc(C(N)=O)c21	-13%	15%
COc1cc(C(=O)N2CCOCC2)cc(OC)c1OC	-4%	.
CCn1cc2nc(SCc3cccc(F)c3)n(CCc3ccccc3)c(=O)c2n1	?	?
O=C(NCCc1ccccc1)c1cc(S(=O)(=O)N2CCCCC2)c[nH]1	-24%	-18%
Cc1cccc(CN2CCc3nc(N4CCN(c5ccccn5)CC4)ncc3C2)c1	?	?
Cn1c(=O)cc(SCC(=O)Nc2cccc(C#N)c2)c2ccc(Cl)cc21	-14%	-11%
Cc1ccc(C)c(Nc2nnc(-c3ccc(C)c(S(=O)(=O)N4CCN(C)CC4)c3)c3ccccc23)c1	-14%	?
Cc1cc(C)c(NS(=O)(=O)c2ccc3c(c2)CC(C)N3C(=O)C2CCC2)c(C)c1 (centres undefined)	?	?
CC1CN(C(=O)Nc2ccc(C(=O)NCCc3ccccc3Cl)cc2)c2ccccc2S1 (centres undefined)	-14%	4%
Cc1ccc2nc(-c3ccc(Cl)c(NC(=O)c4ccc5c(c4)OCCO5)c3)oc2c1	-19%	-14%
CC1CCN(S(=O)(=O)c2ccc3c(c2)N(CC(=O)NCCc2ccc(Cl)cc2)C(=O)CO3)CC1	?	?
CCN1c2ccccc2-n2cccc2C12CCN(C(=O)Nc1ccccc1Br)CC2	-20%	-23%
CCCN(CCC)C(=O)Cn1c(=O)n(-c2ccc(OC)cc2)c(=O)c2ccc(C(=O)NCc3ccc(C)cc3)cc21	-12%	-14%
Cc1ccc2nc(-c3cccc(Cl)c3)c(Nc3ccc4c(c3)OCO4)n2c1	11%	-36%
O=C(NCc1ccccc1)C1CCN(C(=O)c2cnn(-c3ccccc3)c2-n2cccc2)CC1	?	-26%
CCc1ccc(CNC(=O)C2CCN(C(=O)N3CC(CC)Oc4ccc(C)cc43)CC2)cc1 (centres undefined)	?	-5%
CC(=O)N1CCCc2cc(S(=O)(=O)NCc3ccc(N(C)C)cc3)ccc21	?	-17%
CN1CC(=O)N2[C@H](c3ccc4c(c3)OCO4)c3[nH]c4ccccc4c3C[C@@H]2C1=O	-9%	.
Oc1c(C(c2ccccc2)N2CCN(c3cccc(Cl)c3)CC2)sc2nc(-c3ccco3)nn12 (centres undefined)	-25%	61%
Cc1ccccc1OC(=O)CSc1nnc(-c2cccs2)o1	-2%	24%
COc1ccc(OC)c(NC(=O)Cn2nc3c(cc2=O)CCCC3)c1	-15%	0%
COc1ccc(-c2nc(Cn3c(SCc4ccccc4F)nc4ccncc43)c(C)o2)cc1OC	-2%	-43%
O=C(Cn1c(-c2cccs2)cc2ccccc21)N1CCN(c2ccc(F)cc2)CC1	-30%	2%
COc1cc(Cl)c(C)cc1NC(=O)CSc1nc2c(c(=O)[nH]1)CCCC2	-8%	-25%

One compound at a time, from the list above. Order of screens: HTT prom inh, PMP22 txn
CCN1c2ccccc2-n2cccc2C12CCN(C(=O)Nc1ccccc1Br)CC2 is listed as -20%, -23%
CC(=O)N1CCCc2cc(S(=O)(=O)NCc3ccc(N(C)C)cc3)ccc21 is listed as ?, -17%
COc1cc(Cl)c(C)cc1NC(=O)CSc1nc2c(c(=O)[nH]1)CCCC2 is listed as -8%, -25%

Following part.
SMILES	HTT prom inh	PMP22 txn
CCc1ccccc1N(CC)C(=O)c1cc2c(s1)-c1ccccc1OC2	-21%	?
COc1ccc(NC(=O)CSc2n[nH]c(-c3ccccc3)n2)cc1Cl	-17%	14%
Cc1c(C(=O)N2CCCCCC2)c(S(=O)(=O)N(Cc2ccccc2)C(C)(C)C)c(C)n1C	-12%	-40%
CCCNC(=O)c1c(NC(=O)c2ccccc2)sc2c1CCC(C(C)(C)C)C2 (centres undefined)	-7%	3%
Cc1ccc2c(=O)cc(C(=O)Nc3sc4c(c3C(N)=O)CCCC4)oc2c1	-12%[11.5 µM]	0%
COc1ccc(CNc2ncnc3c2c(-c2ccccc2)cn3-c2ccccc2)cc1	-23%	?
CCOC(=O)c1ccc(NC2(c3ccccc3)C(=O)c3ccccc3C2=O)cc1	1%	9%
CCOc1ccc(CC(=O)NCCc2csc3nc(-c4ccccc4F)nn23)cc1	-13%	?
Cc1cc(OCC(=O)NCCc2nc3ccccc3[nH]2)cc(C)c1Cl	-9%	-2%
C[C@H](NCc1ccc2c(c1)nc(NC(=O)c1ccc(-c3cn[nH]c3)s1)n2CCc1ccccc1)C(C)(C)C	?	.
COc1ccc(CNC(=O)Cn2c(=O)oc3cc(S(=O)(=O)N4CCCCCC4)ccc32)cc1	?	-23%
CCc1ccccc1NC(=O)CSc1nncn2c1cc1oc(C)cc12	-26%	-22%
CCN1CCSc2ccc(C(=O)NCc3ccc(OC(C)C)cc3)cc21	-21%	-13%
O=C1CN(C(=O)c2cccc(Br)c2)C(c2ccccc2)c2cc(Cl)ccc2N1 (centres undefined)	?	?
FC(F)(F)Oc1ccc2c(c1)NC(c1ccncc1)=NC(c1cccs1)=N2	?	11%
CCOCCCNC(=O)C1CCN(c2nc3ccc(C)cc3[nH]2)CC1	11%	0%
CCOc1ccc(NC(=O)c2cc(CN3CCCC3)on2)cc1	2%	-3%
O=C(Cn1c(=O)oc2cc(S(=O)(=O)N3CCCC3)ccc21)Nc1ccc(F)cc1F	-27%	-14%
COc1ccc(Nc2ccc3cc(S(=O)(=O)N4CCCC4)ccc3n2)cc1Cl	0%	?
O=C(c1ccco1)N1CCN(C(=O)c2cnn(-c3cccc(F)c3)c2C2CCNCC2)CC1	5%	23%
OC[C@H]1O[C@@H](Oc2ccc(O)cc2)[C@H](O)[C@@H](O)[C@@H]1O	10%	.
COC(=O)c1cc(C)nc2c1c(=O)nc(SCc1c(C)cc(C)cc1C)n2C1CC1	?	?
Cc1ccc(C)c(CN2CCC(CNC(=O)Nc3ccc(Br)cc3F)CC2)c1	?	?
COc1cccc(CNC(=O)COc2cc(=O)n(C)c3ccccc23)c1	13%	9%
CCc1cccc(NC(=O)Cn2nc(C)c3sc4ccccc4c3c2=O)c1	-6%	?
CCc1ccc(CNC(=O)C(C)n2ccc3cc(S(=O)(=O)N4CCCCCC4)ccc32)cc1 (centres undefined)	?	?
N#Cc1ccc(C(=O)Nc2cc3nn(-c4ccccc4)nc3cc2Cl)c(F)c1	8%	-15%
Cn1cnc(S(=O)(=O)N2CCC(C(=O)NCc3ccc(F)cc3)CC2)c1	-10%	8%
COc1ccc(C2(CNC(=O)C(=O)Nc3ccc(C)c(Cl)c3)CCCC2)cc1OC	-8%	?
O=S(=O)(c1ccc(Br)cc1)N1CCn2cccc2C1c1ccc(Br)cc1 (centres undefined)	0%	-1%
Cc1cccc(CNC(=O)Cn2ccc3cc(S(=O)(=O)N4CCCC4)ccc32)c1	-6%	-1%
COc1ccc(-c2noc(C(C)NC(=O)c3ccco3)n2)cc1 (centres undefined)	?	-29%
C[C@@H]1CN(c2c(F)c(F)c3c(=O)c(C(=O)O)cn(C4CC4)c3c2F)C[C@H](C)N1	-2%[25.2 µM]	.
Cn1cc(S(=O)(=O)c2ccc(Cl)cc2)c(=O)c2cc(F)c(N3CCOCC3)cc21	?	-22%
Cc1c(Cl)cccc1NC(c1ccc(F)cc1)c1nnc(-c2ccccc2)o1 (centres undefined)	-19%	-29%
COc1cc(C(CC(=O)Nc2cc(C)ccc2C)N2Cc3ccccc3C2=O)cc(OC)c1OC (centres undefined)	-22%	11%
Cc1ccc(NC(=O)CN(c2ccc(C)cc2)S(=O)(=O)c2cccc3nonc23)cc1	-12%	?
CCOc1ccc(NC(=O)Cn2c(=O)n(Cc3ccco3)c(=O)c3ccc(C(=O)NC4CCCC4)cc32)cc1	-7%	?
Cc1ccc(-n2nc3c(=O)n(CC(=O)NCc4ccco4)nc(C)c3c2C)cc1	?	4%
CC1CCc2c(sc(NC(=O)Cn3nnc(-c4ccc(C(F)(F)F)cc4)n3)c2C#N)C1 (centres undefined)	-9%	-5%
CCn1c2ccccc2c2cc(NC(=O)COc3cc(C)ccc3C)ccc21	-16%	-11%
COc1ccc(CC(=O)Nc2nc3c(s2)CCCC3)cc1	-26%	4%
Cc1ccc(C)c(Cn2c(=O)n(CCCCC(=O)NCc3ccc4c(c3)OCO4)c(=O)c3ccccc32)c1	-3%	?
CCN1C(=O)c2ccccc2C1Nc1ccc(OCCN2CCCCC2)cc1 (centres undefined)	-1%	.
Cc1nnc(N2CCCC(C(=O)NCc3ccccc3F)C2)c2nn(-c3ccc(Cl)cc3)c(C)c12 (centres undefined)	0%	?
O=C(c1ccc2c(c1)N(Cc1ccccc1F)C(=O)c1ccccc1S2=O)N1CCCCC1 (centres undefined)	-15%	2%
O=C(Nc1ccc(F)c(Cl)c1)N1CCC(CN2CCc3ccccc3C2)CC1	-24%	-11%
COCCCNC(=O)CCC(=O)N1Cc2cccc(OC)c2Oc2ncccc21	-20%	4%
Cc1ccc(-n2nc(C(=O)N3CCN(c4ccccc4)CC3)c(=O)n(C)c2=O)cc1	1%	-33%
CCC(C)NC(=O)c1cn(CC)c2ccc(S(=O)(=O)N3CCCCC3)cc2c1=O (centres undefined)	10%[11.5 µM]	?
CC(=O)c1ccc(NC(=O)Cn2cnc3nc4c(cc3c2=O)CC(C)CC4)cc1 (centres undefined)	8%	13%
Fc1ccc(CN2CCc3nc(Nc4ccccc4)ncc3C2)cc1F	-30%	1%
CCCCn1c2ccc(F)cc2c2nnc(SCCN(CC)CC)nc21	-8%	15µM*
CCOC(=O)c1cnc2c(C)cc(C)cc2c1Nc1cccc(C(=O)O)c1	-27%	?
CCCCOc1ccccc1C(=O)N(Cc1cccc(F)c1)C1CCS(=O)(=O)C1 (centres undefined)	-8%	9%
O=C(Cc1csc2nc(-c3ccccc3)cn12)NCc1ccc(F)cc1	-26%	9%
COc1ccccc1-c1nc(SCC(=O)NCc2ccc(C)cc2)c2c(=O)n(C)c(=O)n(C)c2n1	28%	?
COc1cc(OC)c(NC(=O)CSc2nccn2C)cc1Cl	-26%	24%
Cc1ccc(-n2nc3c(=O)n(C(C)C(=O)NCc4ccccc4C)nc(C)c3c2C)cc1 (centres undefined)	?	?
CCOc1ccc(NC(=O)CCn2nc(C)c(S(=O)(=O)N3CCCCC3)c2C)cc1	-26%	12%
CCOC(=O)c1ccc(-n2c(N)c(C(=O)OC)c3nc4ccccc4nc32)cc1	-11%	?
CN(C)S(=O)(=O)c1ccc2c(c1)N(CC(=O)Nc1ccc(F)cc1)C(=O)CS2	-6%	-17%

5 of the compounds above, in markdown.
| structure | HTT prom inh | PMP22 txn |
| --- | --- | --- |
| O=C(Nc1ccc(F)c(Cl)c1)N1CCC(CN2CCc3ccccc3C2)CC1 | -24% | -11% |
| COCCCNC(=O)CCC(=O)N1Cc2cccc(OC)c2Oc2ncccc21 | -20% | 4% |
| Cc1ccc(-n2nc(C(=O)N3CCN(c4ccccc4)CC3)c(=O)n(C)c2=O)cc1 | 1% | -33% |
| CCC(C)NC(=O)c1cn(CC)c2ccc(S(=O)(=O)N3CCCCC3)cc2c1=O (centres undefined) | 10%[11.5 µM] | ? |
| CC(=O)c1ccc(NC(=O)Cn2cnc3nc4c(cc3c2=O)CC(C)CC4)cc1 (centres undefined) | 8% | 13% |
